Screens deposited in PubChem BioAssay by several laboratories.
PP5 primary = PP5 phosphatase inhibitors, primary screen, biochemical, fluorescence; Serine/threonine-protein phosphatase 5 (Homo sapiens), P53041; purified PP5c, OMFP substrate fluorescence; inhibition, % at 6.7 µM; hit rate 0.18% among 320,000; AID 1987, 2009;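 active means inhibition above the campaign's mean inhibition across all tested compounds plus 3 SD, cut at about 9.5% in these data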;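 further: 0% = DMSO only and 100% = 100 µM cantharidin control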
Target sequence (P53041 whole entry, looked up): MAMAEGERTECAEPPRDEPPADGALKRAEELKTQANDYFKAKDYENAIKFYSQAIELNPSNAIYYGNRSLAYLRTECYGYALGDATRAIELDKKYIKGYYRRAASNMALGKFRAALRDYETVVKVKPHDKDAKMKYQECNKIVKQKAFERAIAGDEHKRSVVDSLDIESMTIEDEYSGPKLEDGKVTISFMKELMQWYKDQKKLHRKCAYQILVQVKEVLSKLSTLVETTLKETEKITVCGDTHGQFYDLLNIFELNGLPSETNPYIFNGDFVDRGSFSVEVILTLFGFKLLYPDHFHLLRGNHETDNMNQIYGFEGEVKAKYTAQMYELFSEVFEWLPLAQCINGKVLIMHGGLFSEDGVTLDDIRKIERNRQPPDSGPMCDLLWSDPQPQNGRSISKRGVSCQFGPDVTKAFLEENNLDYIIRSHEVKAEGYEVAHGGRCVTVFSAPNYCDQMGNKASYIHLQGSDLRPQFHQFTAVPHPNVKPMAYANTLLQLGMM
Efflux pump mplx = inhibitors of Candida efflux pumps in yeast, primary screen, S. cerevisiae, Nile Red, multiplex | AID 485275, 2010 | S. cerevisiae Candida pump triplex | hit rate 0.44% among 330,000 | inhibition, % at 10 µM;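 active means plate passing quality check with inhibition over a set limit, or well fluorescence over plate mean plus 4 SD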;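 further: Nile Red retained in pooled yeast measured as flow cytometry median fluorescence; 0% = buffer negative control and 100% = Enniatin B positive control; higher means more Nile Red kept so more efflux inhibition; some compounds called inactive have numbers as strong as hits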
TPT1 inhibitor = Candida albicans TPT1 enzyme inhibitors, primary screen, biochemical, fluorescence polarization; tRNA 2'-phosphotransferase TPT1 (Candida albicans SC5314); recombinant caTPT1, FP RNA substrate dephosphorylation; inhibition, % at 5 µM; hit rate 0.81% among 300,000;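 active means inhibition above the mean of all tested compounds plus 3 SD, set per screening campaign, cut at about 24% in these data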;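 further: plate controls were DMSO alone for no effect and ferristatin control at 100 nM for full effect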
LYPLA2 inh = LYPLA2 inhibitors, primary screen, counter-screen for PME1 inhibitor project, biochemical, fluorescence polarization, FP-Rh probe ABPP. hit rate 0.38% among 320,000. inhibition, % at 5.9 µM. recombinant LYPLA2. Acyl-protein thioesterase 2 (Homo sapiens), O95372;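 active means inhibition above the screen-wide mean plus 3 SD, limit set per campaign, cut at about 26% in these data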;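 further: 0% = LYPLA2 with DMSO and 100% = wells lacking LYPLA2 enzyme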
HCV core dimer = inhibitors of HCV core protein dimerization, primary screen, biochemical, TR-FRET, high-throughput. TR-FRET GST/Flag-core106 dimerization, 1536-well. inhibition, % at 5 µM. hit rate 0.33% among 300,000. AID 1899, 2009;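 active means inhibition above the mean of all tested compounds plus 3 SD, set per screening campaign, cut at about 45% in these data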
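Assay system – GST-tagged and Flag-tagged HCV core protein residues 1-106 · Quantity – core106 proteins, GST 13.5 nM and Flag 17 nM · Benchmarks – unlabelled core106 and no-GST-core106 wells · Read-out basis – percent inhibition of core106 dimerization signal · Detection – time-resolved FRET, ex 340 nm, em 617 and 671 nm · Schedule – 4 h at 22.5 °C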
CTSL1 counter = Fasciola hepatica cathepsin L1 inhibitors, primary screen, counter-screen for PFM18AAP inhibitor project, biochemical, QFRET, fluorogenic peptide substrate | recombinant F. hepatica cathepsin L1, Z-Leu-Arg-MCA fluorescence | inhibition, % at 5.96 µM | hit rate 0.49% among 300,000 | AID 1906, 2009;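 active means inhibition above the mean of all tested compounds plus 3 SD, set per screening campaign, cut at about 17% in these data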;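 further: 0% = plate median of test compound wells and 100% = 1 µM Z-Phe-Ala-diazomethylketone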
PP1 inh = PP1-alpha phosphatase inhibitors, primary screen, counter-screen for PP5 inhibitor project, biochemical, fluorescence, OMFP substrate, single point; Serine/threonine-protein phosphatase PP1-alpha catalytic subunit (Homo sapiens), P62136; purified PP1alpha; inhibition, % at 6.7 µM; hit rate 0.9% among 320,000;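 active means inhibition above the mean inhibition of all tested compounds plus 3 SD, computed separately for each screening campaign, cut at about 15% in these data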
JMJD2C inh = inhibitors of GASC-1 histone demethylase, primary screen, biochemical, fluorescence, DELFIA europium; inhibition, % at 2.35 µM; GST-JMJD2C(1-420) H3K9me3 demethylation; hit rate 0.069% among 330,000; Lysine-specific demethylase 4C (Homo sapiens), Q9H3R0; AID 2099, 2009;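 active means more than half of a compound's replicate wells show inhibition beyond 50%, single wells judged on their own value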;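 further: signal counts dimethyl H3K9 product captured on neutravidin plate; 0% = median of DMSO wells and 100% = 0.3 times that DMSO median; strong numbers were not always called active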
Target sequence (Q9H3R0 1-420 limits assumed): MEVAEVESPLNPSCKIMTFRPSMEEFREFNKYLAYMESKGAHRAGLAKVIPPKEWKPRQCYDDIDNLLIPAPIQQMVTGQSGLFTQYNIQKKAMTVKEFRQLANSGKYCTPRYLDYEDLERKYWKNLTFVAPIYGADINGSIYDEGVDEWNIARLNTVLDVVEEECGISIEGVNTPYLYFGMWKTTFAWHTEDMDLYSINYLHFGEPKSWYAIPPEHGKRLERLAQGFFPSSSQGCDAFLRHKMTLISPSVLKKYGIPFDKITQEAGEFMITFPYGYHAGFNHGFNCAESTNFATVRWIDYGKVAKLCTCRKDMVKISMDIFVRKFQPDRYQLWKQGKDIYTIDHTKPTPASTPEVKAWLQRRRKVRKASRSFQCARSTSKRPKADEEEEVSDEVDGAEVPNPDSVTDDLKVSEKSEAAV
* hit, by the source's call; / = no result given; & = joins results of further samples. An excerpt; count on the stated rates, not on these rows.

#	smiles	PP5 primary	Efflux pump mplx	TPT1 inhibitor	LYPLA2 inh	HCV core dimer	CTSL1 counter	PP1 inh	JMJD2C inh
1	CC1Cc2ccccc2N1C(=O)CNc1ccccc1N1CCCCC1 (stereo unspecified)	0.4	-0.5	0	8	5	1	-6	9
2	CC1CC(C)CN(CCCNC(=O)CCC(=O)N2CC(C)Oc3ccccc32)C1 (stereo unspecified)	-0.8	-0.1	-3	1	-8	1	0	-12
3	O=C(NNC1CC(c2ccccc2)=NN1C(=O)c1ccccc1)c1ccccc1 (stereo unspecified)	-0.9	-0.3	-5	-3	1	-1	0	-34
4	COC(=O)C1=NN(c2ccccc2)C2C(=O)N(c3ccccc3OC)C(=O)C12 (stereo unspecified)	-0.9	-0.2	0	3	-6	0	0	-5
5	CSc1nnc2c(n1)[nH]c1c(C)cccc12	2.7	0.5	1	-1	1	-3	1	-1
6	C=CCn1c(CCNC(=O)c2cccs2)nnc1SCC(=O)Nc1cccc(Cl)c1C	-2.1	-0.1	-2	2	10	0	-2	1
7	CN(Cc1cccnc1)C(=O)CCCc1c[nH]c2ccccc12	2.0	0.0	-1	4	10	-2	3	4
8	CC(CNC(=O)CCC(=O)N1CCOc2ccccc21)c1ccccc1 (stereo unspecified)	1.3	0.0	-1	0	-13	2	1	12
9	O=C(CNS(=O)(=O)/C=C/c1ccccc1)OCC(=O)N1CCC(Cc2ccccc2)CC1	1.9	0.0	-1	-3	11	-30	1	1
10	Cc1ccc(C(=O)Oc2cccc(-n3cnnn3)c2)cc1	-1.4	0.1	3	4	-2	-2	-2	-4
11	COc1ccccc1OCCCOc1ccc(/C=C2\SC(=O)NC2=O)cc1OC	2.5	-0.2	-3	-1	18	6	13	2
12	Cc1nc2nc(C)c(CCC(=O)NCCCN3CCN(c4cccc(Cl)c4)CC3)c(C)n2n1	-2.4&0.0	-0.1&0.3	0&5	4&3	-6&-3	-5&1	-2&-2	8&16
13	CC(C)Cn1c(=O)c2c(nc3n2CCCN3CCc2ccccc2)n(C)c1=O	1.2	0.1	-2	0	4	-3	2	0
14	O=C(c1ccc(Cl)cc1)C(CN1CCCCC1)c1ccccc1 (stereo unspecified)	2.9	-0.1	-1	-3	9	0	1	-3
15	CCOc1ccc(-c2cc(C(=O)Nc3ccc4c(c3)OCCO4)c3ccccc3n2)cc1	1.9	-0.1	-6	-23	21	1	-3	-9
16	CN(c1ccc(OC(=O)CC2OC(=O)c3ccccc32)cc1)S(=O)(=O)c1ccccc1 (stereo unspecified)	4.6	0.2	/	1	/	/	1	-11
17	COc1cc(NC(=O)c2ccccc2)c(OC)cc1NC(=O)CN1CCN(c2ccccn2)CC1	3.6	0.1	-2	11	22	-6	1	3
18	O=C(CCN1CCN(Cc2ccccc2)CC1)Nc1ccc(OCc2ccccc2)cc1	-0.3	-0.1	0	12	-6	2	2	2
19	Cc1nnc(NC(=O)CSc2nc3c(c(=O)n2C)SC(C)C3)s1 (stereo unspecified)	0.7	0.2	6	-2	-2	4	-2	-11
20	Cn1cc([C@@H]2C[C@H]3CN(Cc4cccc(Cl)c4)C(=O)[C@]34CCCN24)c(-c2ccccc2)n1	1.0	0.3	1	-4	12	2	-1	-21
21	CC1CC(C)CN(CCCNC(=O)C2CCN(c3nnc(-n4cccc4)s3)CC2)C1 (stereo unspecified)	0.8	0.2	2	-5	-2	-1	0	-11
22	COc1ccc(/C=C2/S/C(=N/S(=O)(=O)Cc3ccccc3)NC2=O)cc1OC	-0.9	0.0	4	-3	4	-4	-4	0
23	Cc1ccc(NC(=O)c2sccc2C)cc1[N+](=O)[O-]	-1.4	0.4	-2	8	13	-3	-1	-7
24	Cn1c(SCC(=O)Nc2ccc(C(N)=O)cc2)nnc1-c1cccs1	-2.6	-0.2	-3	4	-4	0	-1	-1
25	CN1CCN(C(=S)c2cn(Cc3ccccc3F)c3ccccc23)CC1	-3.0	0.0	1	4	3	3	5	3

Next records follow:
Sequence of screens: PP5 primary, Efflux pump mplx, TPT1 inhibitor, LYPLA2 inh, HCV core dimer, CTSL1 counter, PP1 inh, JMJD2C inh
26: O=C(CSc1ccc(C(F)(F)F)cc1[N+](=O)[O-])NCCOc1ccccc1
  2.3, -0.5, 1, 4, 0, -1, 2, -1
27: NC(=O)C1CCCN(C(=O)c2ccc3nc(Cc4cccc(Cl)c4)oc3c2)C1 (stereo unspecified)
  2.5, 0.0, 1, -3, 6, -6, -3, 0
28: Cn1c(=O)[nH]c(=O)c2c1nc(N1CCCCCC1)n2CCCSc1nc2ccccc2o1
  2.3, 0.2, -1, -7, 21, -8, 2, -1&0
29: COc1cc(/C=C(\C#N)c2nc3ccccc3[nH]2)ccc1O
  4.1, 0.1, 96*, -10, -66, 8, 0, 7
30: COc1ccccc1N1CCN(CC(=O)NCc2ccc(Cl)cc2)CC1
  0.4, -0.1, 2, 9, -5, 1, -3, -8
31: COc1ccc(/C=N/NC(=O)c2cccc(C(=O)N/N=C/c3ccc(OC)cc3)n2)cc1
  2.1, 0.1, -1, -12, 1, -1, -2, -17
32: COc1ccc(C(=O)Oc2cc(N)n(S(=O)(=O)c3ccc(C)cc3)n2)cc1
  3.3, -0.2, 2, 2, 19, 2, 1, 4
33: Cc1cccc(C)c1Nc1nnc(SCC(=O)NC(=O)c2cccn2C)s1
  -2.0, 0.0, 3, 0, 27, -1, 6, 4
34: O=C(COC(=O)c1ccccc1O)Nc1cccc(S(=O)(=O)NC2=NCCCCC2)c1
  0.4, 0.0, -1, -6, 1, -4, 0, -7
35: CCCCOC(=O)Cn1c(=N)n(CCN2CCOCC2)c2ccccc21
  4.0, 0.1, 0, 2, 3, -1, 2, -4

The final two compounds of the section before come first, to join the parts:
Sequence of screens: PP5 primary, Efflux pump mplx, TPT1 inhibitor, LYPLA2 inh, HCV core dimer, CTSL1 counter, PP1 inh, JMJD2C inh
34: O=C(COC(=O)c1ccccc1O)Nc1cccc(S(=O)(=O)NC2=NCCCCC2)c1
  0.4, 0.0, -1, -6, 1, -4, 0, -7
35: CCCCOC(=O)Cn1c(=N)n(CCN2CCOCC2)c2ccccc21
  4.0, 0.1, 0, 2, 3, -1, 2, -4
36: CSc1nc(Oc2ccc(Cl)cc2)c2sccc2n1
  -2.5, -0.1, -4, -1, 2, 2, 0, -24
37: COc1ccc(OC)c(NC(=O)CSc2sc3c(O)cc(=O)[nH]c3c2C#N)c1
  0.5, 0.1, 5, 3, -1, 1, 10, 16
38: COc1ccc(C(=O)O/N=C2\CCS(=O)(=O)c3sccc32)cc1
  -3.0, 0.1, 1, 6, 1, -2, 0, 9
39: O=S(=O)(c1ccc(Br)cc1)N1CCN(c2cc(-c3ccccc3)nc3ncnn23)CC1
  3.4, 0.2, -3, -7, 32, -1, -2, 16
40: CCC(=O)N(CCC(c1ccc(C)cc1)c1ccco1)Cc1ccco1 (stereo unspecified)
  1.5, 0.1, 5, 4, 22, 3, 0, 2
41: Cc1nn2c(-c3ccccc3)ccnc2c1-c1ccccc1
  1.3, -0.1, 0, 4, 0, 4, 0, -24
42: C=CCSc1nc(Oc2ccccc2)c2sccc2n1
  3.9, 0.0, 0, 5, 3, 9, -2, -2
43: Nc1ccc(C(=O)OCc2nc3cc4ccccc4cc3[nH]2)cc1
  0.5, 0.4, 3, -17, 2, 4, 0, -16
44: CCN(CC)CCOCCOc1ccc(Cl)c2ccccc12
  2.0, 0.2, -1, -7, -7, 0, 1, 6
45: Nc1nc2n(n1)C(c1ccco1)CC(c1ccc(Cl)cc1Cl)N2 (stereo unspecified)
  -6.4, 0.0, -1, 9, -7, 14, 2, -13

Part of the list above in order of count of non-hydrogen atoms, smallest number first:
Sequence of screens: PP5 primary, Efflux pump mplx, TPT1 inhibitor, LYPLA2 inh, HCV core dimer, CTSL1 counter, PP1 inh, JMJD2C inh
36: CSc1nc(Oc2ccc(Cl)cc2)c2sccc2n1
  -2.5, -0.1, -4, -1, 2, 2, 0, -24
42: C=CCSc1nc(Oc2ccccc2)c2sccc2n1
  3.9, 0.0, 0, 5, 3, 9, -2, -2
38: COc1ccc(C(=O)O/N=C2\CCS(=O)(=O)c3sccc32)cc1
  -3.0, 0.1, 1, 6, 1, -2, 0, 9

Sorted by value in HCV core dimer (rising): three of the compounds above
| item | SMILES | HCV core dimer |
| --- | --- | --- |
| 41 | Cc1nn2c(-c3ccccc3)ccnc2c1-c1ccccc1 | 0 |
| 42 | C=CCSc1nc(Oc2ccccc2)c2sccc2n1 | 3 |
| 39 | O=S(=O)(c1ccc(Br)cc1)N1CCN(c2cc(-c3ccccc3)nc3ncnn23)CC1 | 32 |

The listing continues.
Sequence of screens: PP5 primary, Efflux pump mplx, TPT1 inhibitor, LYPLA2 inh, HCV core dimer, CTSL1 counter, PP1 inh, JMJD2C inh
46: COC(=O)c1[nH]c2cc(OC)ccc2c1NC(=O)CN1CCC(C(N)=O)(N2CCCCC2)CC1
  2.1, 0.2, -3, -2, -8, -2, -5, -2
47: O=C(O)c1nccnc1C(=O)Nc1ccc(Cl)cc1Cl
  -0.7, -0.1, 1, 0, 8, 4, -3, 8
48: CC(=O)OC(/C(O)=C(\C#N)c1nc2ccccc2[nH]1)c1ccccc1 (stereo unspecified)
  2.2, 0.0, 3, 0, -11, -22, -5, 5
49: CCc1cc(-c2n[nH]c(C)c2-c2nc3ccccc3s2)c(O)cc1OCC(=O)NN
  5.6, 0.5, -2, -10, 0, 4, 8, -10
50: CCOC(=O)c1[nH]nc2c1C(=O)N(CC)C2=O
  -0.9, 0.0, -1, 3, -1, -2, -6, 7
51: COc1cc(C(=S)N2CCOCC2)ccc1OC(=O)/C=C/c1ccco1
  -0.7, 0.4, 1, 2, 1, -9, -1, 5
52: CCOC(=O)c1[nH]c2ccc(OC)cc2c1NC(=S)N1CCN(c2cccc(C)c2C)CC1
  0.6, -0.1, 0, -3, 19, 7, -2, -8
53: COc1ccc(NC(=O)CSc2nc3c(c(=O)n2-c2ccc(F)cc2)SCC3)c(OC)c1
  0.3, 0.3, -3, 3, 9, 4, 0, -8
54: Cc1cc(C)cc(N(C(=O)c2csnn2)C(C(=O)NC2CCCC2)c2ccccn2)c1 (stereo unspecified)
  2.7, 0.2, -5, -3, -9, -10, -5, 1
55: COc1cccc(-c2nc(-c3ccccc3)no2)c1
  -0.9, 0.0, 2, -4, -3, 1, -3, -9
56: Clc1ccc(CN2C3=NCCCN3c3ccccc32)c(Cl)c1
  -3.9, 0.1, -3, -1, 5, -1, -6, -17
57: O=C(CN1CCN(Cc2ccc(Cl)cc2)CC1)N/N=C/C=C/c1ccccc1[N+](=O)[O-]
  2.6, 0.0, 1, 14, 1, 1, 1, -6
58: C=CCN1C(c2ccc(OCC)cc2)=CS/C1=C(\C#N)c1nnc2n1CCCCC2
  1.8, 0.1, 3, 5, 5, 2, -2, 0
